Assay outcomes as filed in PubChem.
miR-21 FLuc: raises the signal of a miR-21 reporter; HeLa miR-21 FLuc reporter, luciferase, 48 h; Potency, µM (highest dose often 38.3 µM), for the others: at the top dose reporter change, positive = more light; 340,000 tested, under 10 active; active = well fitted rising curve with a large enough effect; inconclusive = small, poorly fitted or top-dose-only effect; inactive = no such curve, though single readings can be large or run the other way;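 also: % of control where 0% means no effect; miR-21 action dims this reporter so a rising signal means less miR-21 action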
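HeLa cells endogenously expressing miR-21, stably carrying CMV-driven firefly luciferase with a downstream miR-21 binding site, 2000 cells/well. Titrations up to approximately 40 uM, 48 hours; luciferase luminescence read.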
* = called active by the depositor; ? = inconclusive. This is a subset; rates above refer to the full screens.

SMILES | miR-21 FLuc
NC(=O)C1CCN(S(=O)(=O)c2ccc(N3CCCCS3(=O)=O)cc2)CC1 | -3%
COc1ccc(-c2c(C)nn3c(C(F)(F)F)cc(-c4ccc(Br)cc4)nc23)cc1 | -3%
CCOC(=O)c1c(NC(=O)COc2ccccc2Br)sc2c1CCCCC2 | 0%
CC(=O)c1cccc(NC(=O)Cn2c(=O)oc3cc(S(=O)(=O)NCc4ccccc4)ccc32)c1 | -25%
CCc1ccc(C(=O)NC(Cc2c[nH]c3ccccc23)C(=O)OCC(=O)c2ccc(Br)cc2)cc1 (stereo not given) | 3%
Cc1nn(C(=O)c2ccccc2)c(C)c1Sc1ccc(Cl)cc1 | 5%
CCc1nn(CC(=O)NCCc2ccc(OC)cc2OC)c(=O)c2cc3sccc3n12 | 2%
Cc1ccc(Cl)cc1N1CCN(C(=O)CN2C(=O)CSc3c2c(C)nn3-c2ccccc2)CC1 | -1%
CCc1ccc(NS(=O)(=O)c2cc(Br)cc3c2N(C(C)=O)CC3)cc1 | ?
O=C(COc1ccccc1)N(Cc1cccnc1)c1nc2c(F)cccc2s1 | -13%
CC1CCN(S(=O)(=O)c2ccc3c(c2)N(CC(=O)NC(C)c2ccccc2)C(=O)CS3)CC1 (stereo not given) | -5%
Cc1cc(Cl)ccc1NC(=O)CCCn1nc(C)c2c(C)n(-c3ccccc3)nc2c1=O | -4%
CCc1ccc(CNc2ncnc3onc(-c4ccc(Cl)cc4)c23)cc1 | 0%
COc1ccc(CNC(=O)CCc2c(C)nn(-c3ccc(N4CCOCC4)nn3)c2C)cc1 | -6%
CC1Cc2cc(S(=O)(=O)N3CCN(c4ccccc4F)CC3)ccc2N1C(=O)C1CCC1 (stereo not given) | 6%
CCOc1ccc(CNC(=O)c2cc3c(s2)-c2ccccc2OC3)cc1 | -17%
COc1ccc(NC(=O)CN(C)S(=O)(=O)c2ccc(C(=O)N3CCOCC3)s2)cc1 | -1%
O=C(COCc1cc(-c2cccs2)on1)NCc1cccc(Cl)c1 | ?
CCN1CCOC(=O)C1CC(=O)Nc1cc(Cl)ccc1OC (stereo not given) | -19%
Cc1ccccc1CN1C(=O)c2ccccc2Sc2ccc(C(=O)OCc3ccco3)cc21 | 5%
COC(=O)c1ccc(C2c3c(oc4ccccc4c3=O)C(=O)N2c2nc(C)c(C(=O)OC)s2)cc1 (stereo not given) | -2%
CCCOc1ccc(C(=O)Nc2cccc(NC(=O)c3cccc(Cl)c3)c2)cc1 | -21%
COC(=O)c1c(NC(=O)c2nc(SCc3ccc(C)cc3)ncc2Cl)sc2c1CCCC2 | 1%
O=C(CSc1nnc2scc(-c3ccccc3)n12)Nc1ccc(Cl)cc1 | -1%
COc1cc(NC(=O)Cc2noc3ccccc23)cc(OC)c1OC | -14%
COC(=O)c1c(-c2cccs2)csc1NC(=O)c1ccc(Br)cc1 | -10%
O=C(c1ccco1)N(Cc1cccnc1)c1nc2ccc(F)cc2s1 | -1%
COC(=O)c1c(N)n(-c2cc(Cl)cc(Cl)c2)c2nc3ccccc3nc12 | -6%
COc1ccc(OC)c(Nc2nc(-c3ccc(C)cc3)nc3ccccc23)c1 | -7%
O=C(CSc1nnc(CNC(=O)c2c(F)cccc2Cl)o1)Nc1cccc(F)c1 | -7%
COc1ccc(NC(=O)c2sc3nc(C(F)(F)F)cc(C)c3c2N)cc1OC | 0%
Cc1cccc(CSc2ncc(Cl)c(C(=O)Nc3sc4c(c3C#N)CCCC4)n2)c1 | -1%
Cn1ccc2c(OCC(=O)NCc3ccccc3Cl)cccc2c1=O | -2%
CCc1ccc(CNC(=O)c2ccc(CS(=O)(=O)Cc3ccccc3C)o2)cc1 | 15%
CC1C(=O)Nc2ccc(S(=O)(=O)NCc3ccc(N(C)C)cc3)cc2NC1=O (stereo not given) | 24%
COc1ccc(NC(=O)Cn2c(=O)oc3cc(S(=O)(=O)NCc4ccccc4)ccc32)c(OC)c1 | 11%
CCCc1cc(=O)oc2c3c(ccc12)OCN(Cc1ccc(OC)cc1)C3 | -4%
CC(C)(C)C1CCc2onc(C(=O)Nc3sc4c(c3C#N)CCCC4)c2C1 (stereo not given) | -5%
COCCCNC(=O)Cn1c(=O)n(-c2ccc(C)cc2)c(=O)c2c1c1cc(C)ccc1n2C | 0%
COc1ccccc1-c1cc2nc(C)c(CCC(=O)NC3CCCCC3)c(C)n2n1 | 13%
Cc1ccc(NC(=O)c2oc3ccccc3c2NC(=O)Cc2cccs2)cc1 | -29%
CCOCCn1ccc2c(OCC(=O)Nc3ccc(OC(F)(F)F)cc3)cccc2c1=O | -5%
COc1ccccc1NC(=O)CSc1nnc(-c2cccc(Cl)c2)o1 | -50%
COc1ccccc1C(=O)Nc1ccc2nc(SCCOc3ccccc3C)sc2c1 | -15%
Cc1ccccc1NC(=O)Nc1ccc2nc(N3CCN(C)CC3)cc(C)c2c1 | -13%
O=C(Cn1c(=O)n(-c2ccc(F)cc2)c(=O)c2sc3ccccc3c21)NC1CCCCC1 | 0%
Cc1oc(-c2ccc(Cl)cc2)nc1CSCC(=O)NCc1ccccc1Cl | -3%
CCOC(=O)c1c(C)[nH]c(C)c1S(=O)(=O)N1CCC(C(=O)N2CCN(c3ccccc3)CC2)CC1 | 0%

Given with each value named: entries from further up.
compound: O=C(Cn1c(=O)n(-c2ccc(F)cc2)c(=O)c2sc3ccccc3c21)NC1CCCCC1
  miR-21 FLuc: 0%
compound: Cc1oc(-c2ccc(Cl)cc2)nc1CSCC(=O)NCc1ccccc1Cl
  miR-21 FLuc: -3%

Going on with the list:
SMILES | miR-21 FLuc
CN(Cc1ccccc1)C(=O)CSc1nc2ccsc2c(=O)n1-c1ccc(F)cc1 | 1%
Cc1ccc(-n2ncc(C(=O)NC3CCN(Cc4ccccc4)CC3)c2C2CCN(C(=O)OC(C)(C)C)CC2)cc1C | 8%
CCOCCn1ccc2c(OCC(=O)Nc3cccc([N+](=O)[O-])c3)cccc2c1=O | -11%
Cc1ccccc1OCCn1cc(C(=O)C2CCCCC2)c2ccccc21 | -1%
CCOCCCn1c(=N)c(S(=O)(=O)c2ccc(C)cc2)cc2c(=O)n3cccc(C)c3nc21 | 0%
CCc1ccc2occ(CC(=O)Nc3c(C(=O)Nc4ccc(Cl)cc4)oc4ccccc34)c2c1 | -6%
O=C(O)CSc1nnc(-c2ccc(O)cc2)o1 | 2%
Cc1ccc(CNC(=O)Cn2cc(C(=O)c3ccc(Cl)cc3)c(=O)c3ccc(C)nc32)cc1 | 0%
Cc1ccc(NC(=O)c2cc3nc(-c4ccccc4)cc(-c4ccccc4)n3n2)cc1 | -9%
CCOC(=O)c1cccc(NC(=O)[C@@H](c2ccccc2)N2Cc3ccccc3C2=O)c1 | 15%
CCN(Cc1ccccc1)C(=O)C1CCN(S(=O)(=O)c2c(C)noc2/C=C/c2ccc(C)cc2)CC1 | 6%
COc1ccc(-c2cn3c(n2)sc2cc(C(=O)NCCCN4CCCCC4)ccc23)cc1 | -1%

Some of these compounds in order of the miR-21 FLuc value, smallest number first:
compound,miR-21 FLuc
Cc1ccc(NC(=O)c2cc3nc(-c4ccccc4)cc(-c4ccccc4)n3n2)cc1,-9%
Cc1ccccc1OCCn1cc(C(=O)C2CCCCC2)c2ccccc21,-1%
CCN(Cc1ccccc1)C(=O)C1CCN(S(=O)(=O)c2c(C)noc2/C=C/c2ccc(C)cc2)CC1,6%

The results go on:
SMILES | miR-21 FLuc
CCc1cc(=O)oc2c(C)c3c(cc12)CN(CCc1ccccc1)CO3 | -3%
Cc1nn(C(C)C(=O)Nc2ccc(C(C)C)cc2)c(=O)c2c1sc1ccccc12 (stereo not given) | -33%
Cc1c(C(=O)O)oc2c1-c1nn(Cc3ccccc3Cl)cc1CC2 | -10%
Cc1ccccc1Nc1c(-c2cccnc2)nc2ccc(Cl)cn12 | 15%
COc1ccccc1CN1CCN(C2CCN(C(=O)Nc3ccccc3)CC2)C(=O)C1=O | 0%
CCCCOc1ccc(C(C)NC(=O)c2cccc(Nc3nc4ccccc4n4nnnc34)c2)cc1 (stereo not given) | 1%
Cc1nn(-c2ccccc2)c2c1N(CCCC(=O)NCc1ccc(N(C)C)cc1)C(=O)CS2 | 4%
Cc1c(C(=O)Nc2cccc(C(F)(F)F)c2)oc2ccc(S(=O)(=O)N3CCC4(CC3)OCCO4)cc12 | 29%
Cc1ccc(CN(C(=O)Nc2cccc(Cl)c2)c2ccccn2)cc1 | -2%
CCOc1ccc(C(=O)c2oc3ccccc3c2NC(=O)Cc2coc3cc(C)cc(C)c23)cc1 | 3%
COc1ccc(/C=C\c2onc(C)c2S(=O)(=O)N2CCC(C(=O)Nc3ccc(C)c(F)c3)CC2)cc1 | -1%
CCOC(=O)c1ccc(N2C(=O)c3n[nH]c(-c4cccs4)c3C2c2ccc(OCC)cc2)cc1 (stereo not given) | ?
CCn1c(=O)cc(OCC(=O)NCc2ccc(F)cc2Cl)c2ccccc21 | 4%
COc1cccc(N2CCN(C3C(=O)c4ccccc4N3C(C)=O)CC2)c1 (stereo not given) | 1%
Cc1cc(Nc2cccc(Cl)c2)nc2ccc(NC(=O)c3cccc(N(C)C)c3)cc12 | -7%
CCSc1nc2ccccc2c(OCc2ccccc2Cl)c1C(=O)OC | 0%
O=C(CN1c2ccc(Br)cc2-c2ccccc2S1(=O)=O)N1CCCCC1 | -64%
CCN(CC)S(=O)(=O)c1nnc(NC(=O)COc2ccc(Cl)cc2)s1 | -72%
COc1ccc(-c2nc3n(n2)C(c2ccccc2)C(C(=O)Nc2cccnc2)=C(C)N3)cc1 (stereo not given) | 5%
O=C(CSc1nnc2scc(-c3ccc(Cl)cc3)n12)Nc1cccc(C(F)(F)F)c1 | -8%
O=C(COc1ccc(S(=O)(=O)NC2CCCCC2)cc1)Nc1ccc(C(F)(F)F)cc1 | 0%
Cc1ccc(CNC(=O)CN2C(=O)CSc3ccc(S(=O)(=O)N(C)C)cc32)cc1 | 0%
COc1ccc(OC)c(CCNC(=O)CN2C(=O)COc3ccc(S(=O)(=O)N4CCCCCC4)cc32)c1 | -2%
COc1cc(NS(=O)(=O)c2ccc(NC(=O)c3ccc(C(C)=O)cc3)cc2)nc(OC)n1 | 2%

Reprinted from the part before: 2 compounds, followed by the next part.
SMILES | miR-21 FLuc
COc1ccc(OC)c(CCNC(=O)CN2C(=O)COc3ccc(S(=O)(=O)N4CCCCCC4)cc32)c1 | -2%
COc1cc(NS(=O)(=O)c2ccc(NC(=O)c3ccc(C(C)=O)cc3)cc2)nc(OC)n1 | 2%
CCCCN1CC(c2nc3ccccc3n2CCCCOc2cccc(C)c2C)CC1=O (stereo not given) | -6%
Cc1ccccc1OCC(=O)Nc1ccc(OCc2cc(=O)n3ccccc3n2)cc1 | -2%
Cc1ccc(N(CC(=O)Nc2ccc(Cl)cc2)S(=O)(=O)c2cccc3nonc23)cc1 | ?
Nc1nnc(SCC(=O)Nc2ccc(Cl)cc2)s1 | 21%
Cc1c(C(=O)Nc2nc(-c3ccc(F)cc3)ns2)oc2ccc(Cl)cc12 | 8%
CCC(=O)N1CCc2cc(S(=O)(=O)NCCC(=O)Nc3cc(C)ccc3OC)ccc21 | -3%
CCOc1cc2sc(N3CCC(C(=O)Nc4ccccc4Cl)CC3)nc2cc1Br | -5%
O=C(c1ccc2c(c1)CCN2S(=O)(=O)c1ccc(Cl)cc1)N1CCN(c2ccccc2)CC1 | 4%
COCCN1Cc2cccc(C(=O)Nc3ccc(Cl)cc3Cl)c2C1=O | -16%
Cc1ccc(Nc2cc(-c3ccccc3)nc(C)n2)cc1 | -54%
COc1ccc(-c2cc(C)no2)cc1S(=O)(=O)Nc1cccc(C(F)(F)F)c1 | 13%
Cc1ccc(/C=C(\C#N)c2nc(-c3ccc(-c4ccccc4)cc3)cs2)cc1 | -7%
CCc1nc2nc(C)cc(Nc3cccc(C)c3C)n2n1 | -2%
COC(=O)c1scc(-c2ccccc2)c1S(=O)(=O)Nc1ccccc1 | 1%
Cc1cccc(C(C)C)c1NC(=O)Cn1c(=O)oc2cc(S(=O)(=O)N3CCCC3)ccc21 | 9%
CC(C)OCCCn1c(SCC(=O)c2ccccc2)nc2c(sc3ccccc32)c1=O | -4%
CCC(=O)N1c2ccccc2CC1C(=O)NCCN1CCN(c2cccc(C)c2C)CC1 (stereo not given) | 17%
CCCC(=O)N1CC(=O)Nc2ccc(Cl)cc2C1c1ccccc1 (stereo not given) | 4%
COc1ccc(-c2nn(-c3ccccc3)cc2C(=O)Nc2ccccc2OC)cc1 | -2%
CCCc1cc(N2CCN(c3ccccc3F)CC2)n2cnnc2n1 | ?
CCOc1ccc(C(=O)Nc2c(C(=O)c3ccc(OC)cc3)oc3ccccc23)cc1 | -1%
CCN(CC)c1ccc(NC(=O)Cn2c3ncccc3c(=O)n2-c2ccccc2)c(C)c1 | 7%
COc1ccccc1NC(=O)c1cc(C2CC2)nc2c1c(C)nn2-c1ccc(C)cc1 | 0%
CCNc1ccc(-c2nc(-c3ccccn3)no2)cc1[N+](=O)[O-] | -4%
COc1ccc(C2N=C(N)Nc3nc4ccccc4n32)c(OC)c1OC (stereo not given) | -1%
COC(=O)c1ccc(CSc2nc3c([nH]c4ccccc43)c(=O)n2-c2cc(C)cc(C)c2)o1 | -5%
CCC1CN(C(=O)Nc2ccc(C)c(F)c2)c2ccccc2S1 (stereo not given) | -21%
Cc1ccc2c(c1)N(C(=O)CCC(=O)NCc1cccc(F)c1)CC(C)O2 (stereo not given) | -20%
Cc1nc2cccnc2n1-c1cccc(C(=O)NCCc2ccc(S(N)(=O)=O)cc2)c1 | -2%
CCOc1ccccc1NC(=O)c1cc2c(=O)oc3ccccc3c2s1 | -2%
CCOc1ccc(NC(=O)c2cc(S(=O)(=O)N3CCCC3)c[nH]2)cc1 | -3%
CC(C)c1ccccc1NC(=O)C(Cc1c[nH]c2ccccc12)NC(=O)OC(C)(C)C (stereo not given) | -7%
Cc1c(Cl)cccc1-n1ncc(C(=O)NC2CCCC2)c1C1CCN(C(=O)OC(C)(C)C)CC1 | -5%
